Assay outcomes as filed in PubChem.
eIF4H FP inh = inhibitors of RNA binding by human eIF4H; inhibition, % at 35 µM; 290,000 tested, 0.94% active; AID 2012; Q15056; eIF4H fluorescence polarization binding assay;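 active = 50% or more with normal probe brightness, or confirmed in later tests; inconclusive = above 50% with abnormal brightness, or retests that disagree; inactive = below 50% or failed in later tests; about a fifth of its hits are not listed in these tables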;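 note: calls also rest on retests at 20 µM and on dose response follow-up; 0% = protein and probe with vehicle and 100% = probe without protein; strong numbers were not always called active; many hits fall short of the cut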
PABP polyA inh = blocks human PABP binding to poly(A) RNA | P11940 | fluorescence polarization | inhibition, % at 35 µM | 290,000 tested, 1% active;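 active = 50% or more with normal probe brightness, or confirmed in later tests; inconclusive = above 50% with abnormal brightness, or retests that disagree; inactive = below 50% or failed in later tests; about a fifth of its hits are not listed in these tables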;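 note: calls also rest on retests at 20 µM and on dose response follow-up; controls were probe without protein and protein plus probe with vehicle; some compounds called inactive have numbers as strong as hits; many hits fall short of the cut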
CSC inhib = blocks cancer stem cells; inhibition, % at 7.5 µM; 300,000 tested, 1.1% active; cancer stem cell-like cells viability, luminescence;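 active = mean at 75% or more and at least half the replicates too; inconclusive = mean and replicates disagree; tested in HMLE shEcad cells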;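 note: 0% = median of negative and 100% = median of positive control wells; the first replicate is given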
Rce1 inh = yeast Ras-converting enzyme inhibition; 290,000 tested, 0.27% active; Q03530; yeast membranes, quenched prenylated peptide cleavage fluorescence; AID 2563; calls only;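 active = fall in fluorescence gain of 50% or more versus controls, with final raw signal at or below 3038400; inconclusive = same 50% fall but final raw signal above 3038400; inactive = fall in fluorescence gain under 50%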;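 note: plate controls were neutral control wells for no effect and wells lacking membranes for full effect; tested at 10 µM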
Target sequence (Q03530 whole entry, looked up): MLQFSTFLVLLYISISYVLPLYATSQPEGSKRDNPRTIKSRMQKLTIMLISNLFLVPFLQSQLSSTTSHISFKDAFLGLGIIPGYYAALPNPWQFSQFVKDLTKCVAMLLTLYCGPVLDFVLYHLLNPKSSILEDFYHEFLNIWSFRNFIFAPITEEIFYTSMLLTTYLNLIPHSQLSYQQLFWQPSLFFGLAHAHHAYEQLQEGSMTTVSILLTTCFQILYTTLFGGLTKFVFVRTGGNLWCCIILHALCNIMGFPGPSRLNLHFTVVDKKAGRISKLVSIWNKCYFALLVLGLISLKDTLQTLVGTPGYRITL
MT1-MMP act inh = inhibitors of human MT1-MMP activation; P50281; 360,000 tested, 0.061% active; GFP/RFP ratio change, % at 20 µM; AID 651647; HT1080 RFP-PRO-GFP cells, GFP/RFP ratio fluorescence, overnight; percent of plate control window, DMSO zero;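 active = GFP/RFP ratio change of at least 30% with cell ATP level not reduced by more than half and red fluorescence within 50% of control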; note: strong numbers were not always called active
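Assay system: HT1080 RFP-PRO-GFP cells | Dosing: 20 µM single dose, 1% DMSO | Incubation: Cells overnight before dosing, compound overnight, 37 °C, 5% CO2 | Evaluation: GFP/RFP fluorescence ratio | Control set: DMSO-only wells and HT1080 RFP-L50D-GFP cell wells as references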
HIV Env fusion = blocks HIV Env-driven cell-cell fusion | HeLa-JRFL Env/CEM21 cell fusion, luciferase | inhibition, % at 12.3 µM | AID 651610 | 360,000 tested, 1.1% active;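 active = mean replicate inhibition score of at least 50 and every replicate individually at or above 50; inconclusive = only one of the two criteria met; inactive = mean below 50 and not all replicates reaching 50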;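 note: 0% = plate neutral controls and 100% = maraviroc near 300 nM; one replicate is shown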
Yeast UUG start = modulators of start codon recognition fidelity in yeast; S. cerevisiae UUG-firefly luciferase reporter, luminescence/redox ratio; activity score, % at 18.7 µM; 350,000 tested, 0.13% active; AID 602363;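 active = replicate mean at a twofold rise or more, about +100% in these data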;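 note: firefly luciferase made from a UUG start codon reports start codon fidelity; reporter light over untreated wells divided by growth signal over untreated wells; some hits fall short of that in this replicate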
eIF4H FP inh retest = also measured in eIF4H FP inh; calls as there; inhibition, %; compound at 20 µM; confirmation average;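 mean of two retest wells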
PABP polyA inh retest = recorded beside PABP polyA inh, whose call it bears; inhibition, %; compound at 20 µM; confirmation repeats;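 mean of two retest wells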
MT1-MMP act inh RFP = further read-out of MT1-MMP act inh, marked with its call; RFP signal change, %; measured here: RFP expression control read;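 0 = vehicle wells; hits needed this value within 50% of zero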
The depositor's hits bear a star; i = inactive; u = inconclusive; x = not tested or not shown; + = active, no number.

SMILES | eIF4H FP inh | PABP polyA inh | CSC inhib | Rce1 inh | MT1-MMP act inh | MT1-MMP act inh RFP | HIV Env fusion | Yeast UUG start | others
COc1ccc(NC2CCCN(C(=O)c3cn(C)c4ccccc34)C2)cc1 (stereo not given) | -3.5 | -11.5 | -16.1 | i | 1.3 | 5.5 | -16.4 | -12.8
O=[N+]([O-])c1ccc(Cl)c(NC(=S)N2CCCC2)c1 | -9.1 | 0.3 | -14.5 | i | 4.1 | 3.3 | -13.9 | -20.0
Cc1ccc(-c2nc(S(=O)(=O)c3ccc(C)cc3)c(SCC(=O)NCC3CCCO3)o2)cc1 (stereo not given) | -7.1 | -5.9 | -7.9 | i | -2.1 | 1.0 | 5.4 | -9.4
CCOC(=O)Cn1cnc2c(nnn2-c2cccc(Cl)c2)c1=O | 9.1 | -2.6 | -3.9 | i | 0.9 | 2.2 | 0.8 | -0.3
Cc1noc(NS(=O)(=O)c2ccc(NC(=O)CSc3nc4c(cc3C#N)CCCC4)cc2)c1C | 1.1 | 7.0 | 5.2 | i | -1.6 | 3.7 | -3.1 | 1.3
CC(=O)Nc1ccc(NC(=O)c2nc(S(=O)(=O)Cc3cccc(C)c3)ncc2Cl)cc1 | -7.6 | 5.7 | 91.4* | i | -3.8 | 0.1 | -21.6 | -18.8
CC(C)(c1ccccc1)c1ccc(OCC2CO2)cc1 (stereo not given) | -8.5 | 4.8 | -3.4 | i | -2.9 | -0.4 | -4.2 | -13.9
CCC1(c2ccccc2)NC(=O)N(CC(=O)NCc2ccccc2OC)C1=O (stereo not given) | -9.6 | -9.4 | -2.4 | i | -3.4 | -0.4 | -5.0 | -8.8
CCNS(=O)(=O)c1ccc(C(=O)OCC(=O)N2CCCc3ccccc32)cc1 | x | x | -2.4 | x | 1.6 | 3.9 | -6.6 | -6.5
COc1cccc(OCC(=O)NNC(=O)C(=O)N2CCCC2)c1 | 0.3 | -2.0 | -0.8 | i | 1.5 | 6.4 | 8.3 | -8.1
C=CCNC(=O)c1ccc2c3n(nc2c1)-c1ccc(Cl)cc1CO3 | x | x | 10.3 | i | 4.7 | 1.0 | -96.1 | -9.6
CCOC(=O)c1nc2ccccc2c(=O)[nH]1 | -6.8 | 2.8 | -0.5 | x | -2.2 | 3.2 | -17.4 | -20.5
O/N=C/c1cn(-c2ccccc2)nc1-c1cccnc1 | 4.4 | 11.3 | -2.5 | i | 1.1 | 3.9 | -7.1 | -20.7
CC(C)CCNC(=O)C1CCC(CNS(=O)(=O)c2ccc(Cl)cc2)CC1 (stereo not given) | -6.9 | -9.5 | -8.9 | i | 0.9 | 0.6 | 1.5 | -8.0
CN(CC(=O)Nc1ccc(N2CCOCC2)cc1)C(=O)c1cccc(Cl)c1Cl | x | x | 1.7 | i | 0.1 | 1.7 | -196.7 | -2.6
O=C(O)CCC(=O)N1CCN(c2nc(-c3ccccc3)c3ccccc3n2)CC1 | -1.6 | -3.2 | -11.3 | i | 1.3 | -1.4 | -8.7 | -6.0
Cc1nc2c(=O)[nH]c3ccccc3c2o1 | 4.0 | 11.4 | -7.8 | x | 2.8 | 1.7 | 12.6 | x
COc1ccc(CCNC(=O)Cc2ccc(OCc3ccccc3)c(OC)c2[N+](=O)[O-])cc1OCc1ccccc1 | -2.2 | -4.4 | -0.3 | i | 9.4 | -25.6 | x | x
CO/N=C\CC(=O)Nc1ccc(Oc2ccccc2)cc1 | 16.1 | -4.2 | 0.5 | i | 2.6 | -11.9 | -2.0 | -8.7
O=C(Cc1csc(-c2ccc(F)cc2)n1)Nc1cccc(S(=O)(=O)NC2=NCCC2)c1 | x | x | -3.4 | x | 2.5 | -1.3 | 3.8 | 2.2
CC(C)CN(C(=O)CCC(=O)OCC(=O)c1ccc(F)c(F)c1)c1c(N)n(CC(C)C)c(=O)[nH]c1=O | -2.7 | 9.6 | -1.2 | i | 1.4 | 3.1 | -1.6 | -0.2
Cc1ccc(CSc2nnc(SCC(=O)N/N=C/c3c[nH]c4ccccc34)s2)cc1 | 47.5 | -7.5 | x | i | 0.7 | -11.4 | -39.3 | -15.7
COc1cc(C(=O)NC(C)C2CC3CCC2C3)cc(OC)c1OC (stereo not given) | 1.9 | 10.3 | -4.2 | i | -0.5 | -1.5 | -3.1 | -4.3
CC1(c2nnc(-c3ccccc3)o2)CC(c2ccc(Cl)cc2)=NO1 (stereo not given) | -3.7 | 3.2 | 11.3 | i | 4.7 | -1.8 | -3.4 | -16.9
COc1ccc(CN2CCNC(=O)C2CC(=O)NC2CCCCCCC2)cc1C (stereo not given) | -14.0 | -9.5 | 8.4 | i | -1.6 | 3.2 | 3.4 | -21.4
Going on with the list.
SMILES | eIF4H FP inh | PABP polyA inh | CSC inhib | Rce1 inh | MT1-MMP act inh | MT1-MMP act inh RFP | HIV Env fusion | Yeast UUG start | others
COC(=O)C(c1ccccc1)N(Cc1cccc(CN(C(C(=O)OC)c2ccccc2)S(C)(=O)=O)c1)S(C)(=O)=O (stereo not given) | -0.8 | 6.2 | 28.7 | i | -1.0 | -2.4 | -26.0 | -3.1
CC(=O)Nc1ccc(SC(C)C(=O)NC(N)=O)cc1 (stereo not given) | 16.3 | 14.0 | -3.5 | i | 1.1 | 2.7 | -47.7 | -15.0
CC(C)(C)C(=O)C[n+]1ccc(C(N)=O)cc1 | -3.2 | -4.7 | -9.3 | + | 0.5 | 4.8 | -5.4 | -20.4
CCOc1ccc(C2NC(=O)NC(c3ccccc3)=C2C(C)=O)cc1OC (stereo not given) | -2.0 | 7.5 | -26.4 | i | -2.5 | -2.6 | -5.0 | 12.5
CCC(C)NC(=O)CC(c1ccc(OC)cc1)n1cccc1 (stereo not given) | -8.1 | 0.0 | 0.8 | i | 1.9 | 5.0 | x | -12.9
COc1cc(OC)cc(C(=O)NCC(=O)N2CCCCCCC2)c1 | x | x | 0.1 | x | 2.2 | 1.6 | x | 7.8
CCCCC(=O)NS(=O)(=O)c1ccc(N=NN2CCOCC2)cc1 | -13.7 | 91.5 | -2.7 | i | 3.8 | 0.3 | x | -20.1 | eIF4H FP inh retest=-10.0;PABP polyA inh retest=5.5
CC(=O)Nc1cccc(Nc2cnccn2)c1 | x | x | x | x | 1.6 | 1.7 | -9.1 | 3.1
CCCC(=O)Nc1cc(C)c2c(=O)oc3ccccc3c2n1 | -6.3 | 3.5 | -5.5 | i | -1.4 | -0.6 | -23.2 | 1.5
Cc1sc2nc(SC3CCOC3=O)n(Cc3ccccc3)c(=O)c2c1C (stereo not given) | -6.9 | -8.1 | -0.1 | i | -2.3 | 3.8 | 5.0 | x
CC1=C(C(=O)Nc2cccnc2)C(c2ccc3c(c2)OCO3)C2=C(CCCC2=O)N1 (stereo not given) | 4.2 | -4.7 | -17.1 | i | 4.5 | 8.4 | x | 2.9
CCC(CC)C(=O)NCCc1ccc(S(N)(=O)=O)cc1 | 0.7 | -1.6 | -5.3 | i | 4.0 | 2.5 | 6.3 | -21.7
CCCCc1nnc(NC(=O)c2nc3nccc(C)n3n2)s1 | 22.2 | 7.4 | 2.5 | i | -1.5 | 1.3 | 1.5 | -16.1
O=C(NC(C(=O)N/N=C/c1ccccn1)c1n[nH]c(=O)c2ccccc12)c1ccccc1 (stereo not given) | 2.9 | 4.1 | -16.7 | i | 0.2 | -2.7 | 22.8 | x
CCOC(=O)C1CCN(c2c(NCCN(CC)c3ccccc3)c(=O)c2=O)CC1 | 3.0 | -0.9 | -8.5 | i | 4.4 | 5.5 | -9.1 | 1.0
Cc1nnc(NC(=O)CSc2nnc(CNC(=O)c3ccccc3)n2-c2ccccc2)s1 | 6.7 | 2.1 | 21.9 | i | 3.2 | 10.4 | -53.2 | -8.5
c1ccc(C2CNCc3c2ccc2ccccc32)cc1 (stereo not given) | -9.3 | -15.2 | 29.4 | i | -8.8 | -13.6 | 6.0 | -11.8
O=C(NNC(=S)NC(=O)c1ccccc1[N+](=O)[O-])c1ccccc1 | 12.8 | -3.1 | 3.1 | i | 3.1 | 2.4 | x | -21.6
C1=C(c2ccccc2)N2CCN=C2S1 | 0.0 | 5.4 | -9.9 | i | 1.4 | -1.9 | x | -33.6
Cc1ccc(NC(=O)CSc2nnc(Cc3ccccc3)c(=O)[nH]2)c(C)c1 | x | x | -0.3 | i | 12.1 | 3.3 | 1.5 | -10.0
Cn1ccnc1Sc1cc(NCCCO)c([N+](=O)[O-])c2nonc12 | 2.5 | -7.8 | 6.9 | i | 6.1 | 3.3 | 14.3 | -4.3
Cc1c2cnn(CC(=O)NCCN3CCOCC3)c(=O)c2c(C)n1Cc1ccccc1F | x | x | x | x | 5.2 | 5.2 | 32.4 | -13.2
Cc1ccccc1N=C1NC(=O)/C(=C/c2cccnc2)S1 | -5.2 | -7.5 | 0.1 | i | -6.3 | -5.4 | -6.7 | -3.9
COc1ccc(OC)c(C(=O)c2ccc(C(=O)Nc3cccc4ccccc34)cc2)c1 | -9.4 | 3.9 | -1.3 | i | 0.4 | -9.8 | 14.8 | x
CCOC(=O)c1nnn2c1nc(SCC(C)=O)c1ccccc12 | 17.9 | 1.6 | -10.3 | i | -4.5 | -1.9 | 17.0 | 5.5

Next section; it opens with the two that closed the last part.
SMILES | eIF4H FP inh | PABP polyA inh | CSC inhib | Rce1 inh | MT1-MMP act inh | MT1-MMP act inh RFP | HIV Env fusion | Yeast UUG start | others
COc1ccc(OC)c(C(=O)c2ccc(C(=O)Nc3cccc4ccccc34)cc2)c1 | -9.4 | 3.9 | -1.3 | i | 0.4 | -9.8 | 14.8 | x
CCOC(=O)c1nnn2c1nc(SCC(C)=O)c1ccccc12 | 17.9 | 1.6 | -10.3 | i | -4.5 | -1.9 | 17.0 | 5.5
COc1ccccc1-n1cnnc1SC(C)C(=O)Nc1cccc([N+](=O)[O-])c1 (stereo not given) | -16.2 | 67.7 | -1.7 | i | 5.4 | 0.8 | 39.1 | x | eIF4H FP inh retest=-1.6;PABP polyA inh retest=4.1
CCC(Sc1ccc(C(=O)O)cc1)C(=O)O (stereo not given) | 8.4 | -11.3 | -8.4 | i | 9.8 | 6.1 | -11.5 | -12.3
CC(C)(C)C(=O)c1cnc(Nc2ccccc2)s1 | -10.1 | -4.8 | 15.4 | i | -2.4 | 0.0 | x | x
Cn1ccc2c(-c3cncc4ccccc34)cc3c(c21)C1CCC3C1 (stereo not given) | x | x | x | x | 5.5 | 0.5 | 6.8 | 1.1
O=C(Cc1ccc(Cl)cc1)Nc1ccccc1C(=O)N1CCCC1 | -1.5 | -6.1 | 3.0 | i | -0.9 | 3.0 | 6.0 | -11.7
CCOC(=O)C(=O)NCC(c1cccs1)S(=O)(=O)c1ccc(F)cc1 (stereo not given) | x | x | -11.2 | i | -3.0 | -1.7 | -34.5 | -11.4
O=C(Nc1nc(-c2ccccc2)cs1)c1ccc2c(=O)n3c(nc2c1)CCCCC3 | -5.4 | 4.1 | x | i | -6.8 | -25.7 | 19.4 | x
O=C(Nc1ccccc1F)c1c[nH]c(=O)[nH]c1=O | -2.5 | -11.2 | -8.5 | i | -0.3 | 1.3 | u | -12.1
CN(Cc1cnn(-c2ccc(F)cc2)c1)Cc1nc(Cc2ccccc2)no1 | 5.9 | -10.3 | 16.9 | i | 3.6 | -1.2 | 6.6 | -9.5

An excerpt; the hit share may differ from the screen's.
